CHRM5 antagonist = antagonists of human muscarinic M5 receptor (CHRM5); P08912; CHO-hM5 cells, Fluo-8 calcium fluorescence, ACh EC80; inhibition, % at 3 µM; 360,000 compounds, 0.59% hits;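 active = inhibition above a per-plate cutoff, the mean of that plate's test compounds plus 3 SD, cut at about 27% in these data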;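 also: 0% = acetylcholine EC80 with DMSO and 100% = DMSO without agonist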
Target sequence (P08912 whole entry, looked up): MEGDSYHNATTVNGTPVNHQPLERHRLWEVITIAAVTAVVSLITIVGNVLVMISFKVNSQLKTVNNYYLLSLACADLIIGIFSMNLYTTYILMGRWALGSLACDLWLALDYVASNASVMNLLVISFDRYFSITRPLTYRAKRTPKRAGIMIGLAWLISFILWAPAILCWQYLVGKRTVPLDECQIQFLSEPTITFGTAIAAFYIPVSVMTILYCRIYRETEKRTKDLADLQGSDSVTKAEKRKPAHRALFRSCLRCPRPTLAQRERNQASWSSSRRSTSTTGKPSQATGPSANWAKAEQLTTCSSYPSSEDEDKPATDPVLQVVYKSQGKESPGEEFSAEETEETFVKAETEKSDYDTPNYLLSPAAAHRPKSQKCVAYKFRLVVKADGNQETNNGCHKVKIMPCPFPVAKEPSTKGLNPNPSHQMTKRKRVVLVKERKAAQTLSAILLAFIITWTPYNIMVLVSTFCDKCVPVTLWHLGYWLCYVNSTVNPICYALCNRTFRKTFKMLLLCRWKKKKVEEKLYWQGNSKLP
CHRM4 PAM = positive allosteric modulators of human muscarinic M4 receptor; P08173; CHO-K1 hM4/Gqi5, Fluo-8 calcium fluorescence, ACh EC20; 0% = ACh EC20, 100% = maximal ACh; activation, % at 3 µM; 360,000 compounds, 0.4% hits; AID 624126;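 active = activation above its plate's cutoff, the mean activation of sample wells plus 3 SD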; also: some results filed as inactive read as strong as hits
CRFBP-R2 agonist = CRF-BP/CRF-R2 complex agonism; HEK293 CRF-R2/CRF-BP, calcium dye fluorescence (FLIPR); percent of saturating CRF peptide response; activation, % at 13.2 µM; 350,000 compounds, 0.46% hits;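 active = activation of at least 50%, plus an integration ratio under a set limit after plate pattern correction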;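 also: plate controls were neutral control wells without compound for no effect and CRF at EC100 for full effect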
CHRM5 agonist = agonists of human muscarinic M5 receptor (CHRM5); P08912; CHO-K1 hM5 cells, Fluo-8 calcium fluorescence; 0% DMSO wells, 100% maximal acetylcholine response; activation, % at 3 µM; 360,000 compounds, 0.19% hits; AID 624037;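 active = activation above the run's mean over test compounds plus 3 SD, cut at about 23% in these data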;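 also: signal is peak over basal fluorescence ratio across the kinetic read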
M5 PAM = potentiates acetylcholine response at human M5 receptor | P08912 | activation, % at 3 µM | 360,000 compounds, 0.3% hits | CHO-K1 hM5, Fluo-8 calcium, ACh EC20 PAM; 0% = ACh EC20, 100% = ACh EC100;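 active = activation above the run cutoff, the mean activation of all test compounds plus 3 SD, cut at about 18% in these data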
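Assay system – human M5 receptor in CHO-K1 cells · Read-out – % activation, ACh-normalized · Technique – Fluo-8 calcium fluorescence · Dosing – single-point, 3 µM nominal · Incubation – Fluo-8 loading 80 min at 37 °C plus 30 min room temperature · Repeats – singlicate, one well per test compound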
CRFR2-BP antag = CRF-BP/CRF-R2 complex antagonism; inhibition, % at 11.8 µM; 350,000 compounds, 0.59% hits; HEK293 CRF-R2/CRF-BP, CRF-induced calcium fluorescence;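 active = inhibition of the ligand-induced calcium signal above about 50% at the single tested concentration, limit read from the data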
Starred values were filed as active, the others as inactive; & = joins results of further samples; ! = not confirmed by another sample. Only part of the results is shown (hit frequency here may not be typical).

1. CC1(C)S[C@@H]2[C@H](NC(=O)Cc3ccccc3)C(=O)N2[C@H]1C(=O)O
2. CC(=O)[C@@]1(O)CC[C@H]2[C@@H]3C[C@H](C)C4=CC(=O)C=C[C@]4(C)[C@@]3(F)[C@@H](O)C[C@@]21C
3. COc1cc(CN2CCc3ccccc3C2)ccc1O
4. O=C(O)/C=C/C(=O)NCc1csc2ccccc12
5. O=C1CC2(CCCC2)CC(=O)N1CCCCN1CCN(c2ncccn2)CC1
6. CCCN1CN(CCc2ccccc2)CNC1=S

compound no. | 1 | 2 | 3 | 4 | 5 | 6
CHRM5 antagonist | 2.2&2.5 | -6.0 | 14.2 | 6.3 | 2.6 | 12.2
CHRM4 PAM | -3.7&-1.7 | -9.8 | -7.5 | -5.0 | 5.7 | -0.1
CRFBP-R2 agonist | -1.3&-2.8 | -0.8 | 0.8 | -3.7 | -2.0 | -3.0
CHRM5 agonist | 0.8&-4.1 | 1.4 | 0.0 | 2.8 | 0.2 | 0.8
M5 PAM | -4.1&2.2 | -0.2 | -0.2 | -1.8 | -0.4 | -7.4
CRFR2-BP antag | 1.1&11.4 | 4.8 | -3.9 | 16.4 | -0.9 | -14.6

7. CC(=O)Nc1nnc(S(N)(=O)=O)s1
8. Cc1cc(N/N=C/c2ccccc2O)c2ccccc2n1
9. Cc1coc(NC(=O)CSc2nc(-c3ccc(Cl)cc3)cc(C(F)(F)F)c2C#N)n1
10. CC(C(=O)O)c1ccc(CC2CCCC2=O)cc1 (centres undefined)
11. CNCCc1ccccn1
12. O=C(O)Cc1ccc(-c2ccccc2)cc1

compound no. | 7 | 8 | 9 | 10 | 11 | 12
CHRM5 antagonist | -6.3 | 4.3 | -3.4 | -5.0 | -2.1 | -0.9
CHRM4 PAM | 10.6 | -4.0 | 8.7 | -0.7 | -1.0 | 2.8
CRFBP-R2 agonist | 0.0 | 0.5 | 28.4 | -1.9 | 1.8 | 2.0
CHRM5 agonist | 0.0 | -3.1 | 1.6 | 0.5 | 0.3 | 0.0
M5 PAM | 12.9 | 1.9 | 4.6 | -1.8 | -0.4 | -3.5
CRFR2-BP antag | 30.8 | 4.7 | -22.1 | -28.5 | -7.4 | -39.6

13. NC(=O)CC(NC(=O)Cc1ccc(Cl)cc1)c1ccc(NCCc2ccccc2F)c([N+](=O)[O-])c1 (centres undefined)
14. Cc1[nH]c2ccccc2c1CN1CCc2ccccc2C1
15. O=C(CCC(=O)N1CCOCC1)NCCc1ccc(F)cc1
16. O=C(Cn1cnc2c(oc3ccccc32)c1=O)NCCc1ccccc1
17. CC(C)c1onc(C(=O)NCCc2ccccc2)c1[N+](=O)[O-]
18. O=C(CCCOc1ccccc1)NCCc1ccccc1

compound no. | 13 | 14 | 15 | 16 | 17 | 18
CHRM5 antagonist | 4.7 | 1.4 | -0.7 | 2.6 | -1.3 | -8.4
CHRM4 PAM | 0.9 | 2.5 | 7.5 | -4.9 | 0.1 | 0.7
CRFBP-R2 agonist | -1.5 | 1.4 | 3.4 | -0.6 | -1.4 | 0.5
CHRM5 agonist | 1.6 | -0.1 | 3.4 | -0.1 | -2.5 | 0.8
M5 PAM | 2.8 | -1.6 | 6.3 | -0.8 | -0.9 | 5.3
CRFR2-BP antag | 13.7 | -3.4 | 10.8 | -12.4 | 6.2 | 32.4

19. CN1C(=O)C2CN(CCc3ccccc3)CNC2N(C)C1=O (centres undefined)
20. COC(=O)C1=C(C)NC(C)=C(C(=O)OCC(C)C)C1c1ccccc1[N+](=O)[O-] (centres undefined)
21. Cc1c(CN2CCCC(C)C2)c(O)n(CCO)c(=O)c1C#N (centres undefined)
22. CCCCN1CCCCC1C(=O)Nc1c(C)cccc1C (centres undefined)
23. COc1ccc2c(c1OC)C(=O)O[C@@H]2[C@H]1c2c(cc3c(c2OC)OCO3)CCN1C
24. Oc1ccc(C=NCCc2ccccc2)cc1

compound no. | 19 | 20 | 21 | 22 | 23 | 24
CHRM5 antagonist | 0.3 | -1.8 | -6.0 | -6.3 | 2.7 | 4.4
CHRM4 PAM | 0.6 | -7.4 | 8.1 | -1.3 | -3.0 | 0.6
CRFBP-R2 agonist | -0.4 | 0.2 | 2.8 | -0.3 | 1.6 | -0.5
CHRM5 agonist | -6.6 | 5.3 | -4.5 | -0.3 | 0.8 | -1.4
M5 PAM | 2.4 | 1.2 | 15.9 | 2.8 | 4.9 | -1.3
CRFR2-BP antag | 4.2 | -9.1 | -4.0 | -5.5 | -12.8 | -0.3

Eleven of the compounds above, with values under each structure:
Below each compound – CHRM5 antagonist | CHRM4 PAM | CRFBP-R2 agonist | CHRM5 agonist | M5 PAM | CRFR2-BP antag
14) Cc1[nH]c2ccccc2c1CN1CCc2ccccc2C1
    1.4 | 2.5 | 1.4 | -0.1 | -1.6 | -3.4
15) O=C(CCC(=O)N1CCOCC1)NCCc1ccc(F)cc1
    -0.7 | 7.5 | 3.4 | 3.4 | 6.3 | 10.8
16) O=C(Cn1cnc2c(oc3ccccc32)c1=O)NCCc1ccccc1
    2.6 | -4.9 | -0.6 | -0.1 | -0.8 | -12.4
17) CC(C)c1onc(C(=O)NCCc2ccccc2)c1[N+](=O)[O-]
    -1.3 | 0.1 | -1.4 | -2.5 | -0.9 | 6.2
18) O=C(CCCOc1ccccc1)NCCc1ccccc1
    -8.4 | 0.7 | 0.5 | 0.8 | 5.3 | 32.4
19) CN1C(=O)C2CN(CCc3ccccc3)CNC2N(C)C1=O (centres undefined)
    0.3 | 0.6 | -0.4 | -6.6 | 2.4 | 4.2
20) COC(=O)C1=C(C)NC(C)=C(C(=O)OCC(C)C)C1c1ccccc1[N+](=O)[O-] (centres undefined)
    -1.8 | -7.4 | 0.2 | 5.3 | 1.2 | -9.1
21) Cc1c(CN2CCCC(C)C2)c(O)n(CCO)c(=O)c1C#N (centres undefined)
    -6.0 | 8.1 | 2.8 | -4.5 | 15.9 | -4.0
22) CCCCN1CCCCC1C(=O)Nc1c(C)cccc1C (centres undefined)
    -6.3 | -1.3 | -0.3 | -0.3 | 2.8 | -5.5
23) COc1ccc2c(c1OC)C(=O)O[C@@H]2[C@H]1c2c(cc3c(c2OC)OCO3)CCN1C
    2.7 | -3.0 | 1.6 | 0.8 | 4.9 | -12.8
24) Oc1ccc(C=NCCc2ccccc2)cc1
    4.4 | 0.6 | -0.5 | -1.4 | -1.3 | -0.3

(further entries)
25. CSc1nc(-c2ccc(Cl)cc2)nn1S(=O)(=O)c1ccccc1
26. Nc1nc(Cl)nc2c1ncn2C1CC(O)C(CO)O1 (centres undefined)
27. Cc1[nH]cnc1CN1CCc2c(c3ccccc3n2C)C1=O
28. O=C(CSc1nccc(=O)[nH]1)N1CCc2ccccc2C1
29. CO/N=C(\C(=O)N[C@@H]1C(=O)N2C(C(=O)O)=C(COC(C)=O)CS[C@H]12)c1csc(N)n1 (stereo in doubt)

compound no. | 25 | 26 | 27 | 28 | 29
CHRM5 antagonist | -3.5 | 2.2 | 1.7 | -7.6 | 30.6*!
CHRM4 PAM | -2.6 | 2.4 | -5.6 | 0.0 | -17.1&-18.6&6.0
CRFBP-R2 agonist | 4.4 | 2.8 | -0.4 | 0.1 | -0.8&1.4&-0.6
CHRM5 agonist | -3.5 | 1.4 | -0.6 | 1.6 | -1.4&-1.4&1.1
M5 PAM | -3.0 | -3.5 | -1.0 | 2.0 | -18.5&-18.7&-3.1
CRFR2-BP antag | 13.1 | -13.7 | 10.5 | 14.5 | -8.4&-3.8&18.5

Assay outcomes as filed in PubChem.
